# VDR inhibitor – Inhibitors of the vitamin D receptor (VDR): qHTS; VDR-SRC2-3 peptide fluorescence polarization, 2 h; 400,000 compounds, 0.93% hits; Potency, µM, inactives show max response, negative = inhibition, actives largely listed as inhibitors; active = well fitted inhibition curve with a large enough effect; inconclusive = small, poorly fitted or top-dose-only effect, or another doubt; inactive = no such curve, though single readings can be large or run the other way; also: series mostly up to about 120 µM
# Target sequence (P11473 whole entry, looked up): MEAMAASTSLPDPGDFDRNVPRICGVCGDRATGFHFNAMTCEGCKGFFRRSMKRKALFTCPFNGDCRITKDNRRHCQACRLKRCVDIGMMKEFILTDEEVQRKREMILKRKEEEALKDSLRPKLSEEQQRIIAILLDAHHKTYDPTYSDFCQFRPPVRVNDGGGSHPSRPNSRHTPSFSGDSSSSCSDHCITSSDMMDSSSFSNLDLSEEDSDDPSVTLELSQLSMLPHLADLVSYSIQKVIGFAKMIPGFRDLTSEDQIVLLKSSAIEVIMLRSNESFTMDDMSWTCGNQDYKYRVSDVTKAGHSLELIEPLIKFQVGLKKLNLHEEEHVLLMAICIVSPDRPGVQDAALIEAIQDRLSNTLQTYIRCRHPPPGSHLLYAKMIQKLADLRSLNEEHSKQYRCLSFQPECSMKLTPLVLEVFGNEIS
#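 FP read-out; VDR + SRC2-3 coactivator peptide; 23 nl compound by pintool; 2 h RT incubation; reagents held at 4 deg C, protected from light.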
# Numbers without * were called inactive; ? = inconclusive; & = joins results of further samples; ! = a repeat was not active; [ ] = dose if it differs, or a comment. % is scaled to controls: 0 for no effect and ±100 for the full control effect; potency is read from the fitted curve at half-maximal effect. A portion of the library; the hit share may differ from the screen's.
SMILES,VDR inhibitor
COc1nnc(-c2ccc(N3CCOCC3)c(NC(=O)c3ccccc3)c2)c2ccccc12,1%
Cc1oc(-c2cccc(Cl)c2)nc1CN1CCCC(C(=O)N2CCN(c3ccc(F)cc3)CC2)C1 (stereo not drawn),-12%
Cc1oc(-c2cccc(Cl)c2)nc1CSc1nc2c(c(=O)[nH]1)CCC2,-9%
Cc1ccc(C)c(N2C(=O)N(Cc3cc(=O)n4ccccc4n3)c3ccccc3S2(=O)=O)c1,6%
O=C(CCCCCn1c(=O)[nH]c2ccccc2c1=O)NCc1ccccc1,-2%
CN(C(=O)COC(=O)CSc1ccc(C(N)=O)cc1[N+](=O)[O-])C1CCS(=O)(=O)C1 (stereo not drawn),-29%
COc1ccccc1C(=O)Nc1nc2nc(-c3ccccc3)cc(=O)n2[nH]1,11%&2%
Cc1nccn1C[C@@H]1CCc2c(c3ccccc3n2C)C1=O,-9%&0%
CCOc1c2ccccc2nn1CCOC,-7%
S=c1[nH]nc(-c2ccc(Cl)cc2)n1/N=C/c1cccs1,2%
Cc1nnc(NC(=O)c2ccccc2NC(=O)c2ccccc2)s1,-4%
CCOC(=O)c1ccc(NC(=O)c2c(NCc3ccc(OC)c(OC)c3OC)sc3c2CCC(C)C3)cc1 (stereo not drawn),-13%
CCN(C(=O)COC(=O)c1cc(-c2cccc3ccccc23)nc2ccccc12)C1CCS(=O)(=O)C1 (stereo not drawn),-17%
CCOc1ccc(C2CC(c3ccccc3C)n3ncnc3N2)cc1 (stereo not drawn),-14%
N#CCc1ccc(OC(=O)c2cnccc2C(F)(F)F)cc1,-2%
CC(C)(C)OC(=O)C[C@H]1C/C=C\C[C@H](CC(=O)N[C@H](CO)Cc2ccccc2)C(=O)N[C@H](Cc2ccccc2)COC1=O,1%
CCC(=O)Nc1ccc(C(=O)Nc2cccnc2)cc1,-9%
CCC(=O)Nc1c(C(=O)Nc2cccc(OC)c2)oc2ccccc12,-21%
COC(=O)c1cc(=O)cc(C(=O)OC)o1,-11%
CCOC(=O)c1c(C)oc2nc(C)nc(NCC3CCN(Cc4ccccc4C)CC3)c12,27%
COc1cccc(OC)c1OCCNC(C)(C)C,-17%
Cc1ccc(Cn2c(CNC(=O)c3ccccc3Br)nc3cccnc32)cc1,5%
CC(C)(C)OC(=O)N1CCC[C@H]1c1nnc(SC/C=C/c2ccccc2)o1,-13%
COc1ccc(NC(=O)CN(C)CC(=O)Nc2ccc(N3CCOCC3)cc2)c([N+](=O)[O-])c1,16%
COc1cc(C(C)=O)ccc1OCCN1CCC(Cc2ccccc2)CC1,0%

# Four neighbouring records out of the list so far, for reference:
SMILES,VDR inhibitor
Cc1ccc(Cn2c(CNC(=O)c3ccccc3Br)nc3cccnc32)cc1,5%
CC(C)(C)OC(=O)N1CCC[C@H]1c1nnc(SC/C=C/c2ccccc2)o1,-13%
COc1ccc(NC(=O)CN(C)CC(=O)Nc2ccc(N3CCOCC3)cc2)c([N+](=O)[O-])c1,16%
COc1cc(C(C)=O)ccc1OCCN1CCC(Cc2ccccc2)CC1,0%

# The list goes on:
SMILES,VDR inhibitor
Cc1ccc(C(=O)C(C)OC(=O)Cc2c[nH]c3ccccc23)cc1 (stereo not drawn),-23%
COc1ccc(C(=O)N2CCOC2CNC(=O)C(=O)NCCc2ccc(OC)c(OC)c2)cc1 (stereo not drawn),-7%
O=C(CSc1nnc(SCc2ccccc2)s1)N/N=C/C=C/c1ccco1,-21%
Cc1ccc2nc(-c3cccnc3)c(Nc3ccccc3C)n2c1,-17%&8%
COc1ccc(C2=NN(C(=O)CCC(=O)O)C(c3ccc([N+](=O)[O-])cc3)C2)cc1 (stereo not drawn),-4%
CCn1c(SCC(=O)N2CCCc3ccccc32)nc2c1c(=O)n(C)c(=O)n2C,-9%
CS(=O)(=O)c1ccc(NC(=O)CCN2C(=O)NC3(CCCC3)C2=O)cc1,-1%
O=C(Cc1cccs1)NC1CCCC1,?
NC(=O)C1CCN(c2ccc(C(F)(F)F)cn2)CC1,-10%
O=C1C(=O)N(C2CCN(C(=O)c3ccccc3Cl)CC2)CCN1Cc1ccc(F)cc1,-6%
O=C(CCC1CCCC1)N1CCN(C(=O)c2cccnc2)CC1,0%
O=C1CCC(=O)N1CCCCCc1nc(-c2ccccc2)no1,21%
O=C(/C=C/c1c(F)cccc1Cl)NCCCN1CCOCC1,8%
Nc1ncn([C@H]2O[C@@H](CO)[C@@H](O)[C@@H]2O)c(=O)n1,3%
CNC(=O)c1[nH]cnc1C(=O)Nc1ccccc1,-3%
O=C(CNC(=O)Cc1cccc2ccccc12)NCc1ccc(F)cc1,-9%
Nc1cc(N)nc(SCCc2ccccc2)n1,-7%
COc1ccc(CCNC(=O)C2CCC(C(C)(C)C)CC2)cc1OC (stereo not drawn),1%
CCCCN(C(=O)c1ccc(C)cc1)c1c(N)n(CCC)c(=O)[nH]c1=O,-5%
COc1cccc(C(=O)c2c[nH]c(C(=O)NCc3cccnc3)c2)c1,-1%
C#CCOCCOCCOCCNc1nc(N2CCN(C(=O)[C@H](C)n3cc(CCC(=O)O)nn3)CC2)nc(N2CCN(C(=O)[C@H](C)n3cc(CCC(=O)O)nn3)CC2)n1,-9%
O=C(NNc1c(F)c(F)cc(F)c1F)C1CCN(S(=O)(=O)c2ccccc2F)CC1,-8%
CN(C)c1ccnc(-c2ccccc2C(F)(F)F)n1,-26%
O=C(O)/C=C/C(=O)Nc1ccc(OC(F)(F)F)cc1Br,0%
COC(=O)CN(c1ccccc1F)S(=O)(=O)c1ccccc1,-6%

# Quoted at random: 2 records from the list.
SMILES,VDR inhibitor
COc1ccc(CCNC(=O)C2CCC(C(C)(C)C)CC2)cc1OC (stereo not drawn),1%
Nc1cc(N)nc(SCCc2ccccc2)n1,-7%

# (cont.)
SMILES,VDR inhibitor
CCN(CC1COc2ccccc2O1)C(=S)NCCCN(C)C (stereo not drawn),-13%
OC1(c2ccccc2)CC(c2ccccc2)c2ccccc2O1 (stereo not drawn),37%[activator]
CCSc1nnc(NC(=O)c2cc(C)nc3ccccc23)s1,16%
CCc1ccc(CN(Cc2cn[nH]c2-c2ccc(OC)cc2)C(=O)Nc2ccc(C)c(F)c2)cc1,15%
CCN(C(=O)CSc1nnc(NCc2ccccc2)s1)C1CCS(=O)(=O)C1 (stereo not drawn),3%
CCCc1cc(=O)[nH]c(-n2[nH]c3c(c2=O)CCCC3)n1,-5%
CC1S/C(=N/N=C/c2cccs2)NC1=O (stereo not drawn),-5%
Cc1nn(C(C)(C)C)c(OC(=O)c2ccc(Br)o2)c1Sc1ccccc1,4%
COC(=O)Cn1c(=O)c2cccn2c2ccc(F)cc21,-2%
COc1cccc(C(=O)COc2cccc(NC(=O)c3cccc([N+](=O)[O-])c3)c2)c1,7%
CCCC(=O)Nc1sc2c(c1C#N)CC(C)(C)NC2(C)C,2%
CC(Sc1cccc[n+]1[O-])C(=O)Nc1cccc([N+](=O)[O-])c1 (stereo not drawn),-16%
CC(C)(C)n1nc2c(c1NC(=O)c1cccc(Cl)c1)CS(=O)(=O)C2,-16%
COc1cc(CCN2C(=O)c3cccc4cccc(c34)C2=O)c(S(=O)(=O)N2CCCCCC2)cc1OC,-1%
N#Cc1cccc(NC(=O)CSc2n[nH]c(=O)[nH]c2=O)c1,-8%
CCN(CC)S(=O)(=O)c1cccc(C(=O)N/N=C/c2c(C)nn(-c3ccccc3)c2Cl)c1,-3%
CN(C)C=NC(=O)c1[nH]c2ccc(Cl)cc2c1-c1ccccc1,18%
COC(=O)c1ccc(NC(=O)CN2CCCN(Cc3ccc(Cl)cc3)S2(=O)=O)cc1,1%
Cc1ccccc1NS(=O)(=O)c1cc(C(=O)N2CCc3ccccc3C2)ccc1C,-14%
COc1ccccc1C1OC2=C(Nc3ccc([N+](=O)[O-])cc3N2)C1=O (stereo not drawn),-4%
O=C(OCC(=O)N1CCCc2ccccc21)c1cccc(S(=O)(=O)N2CCc3ccccc32)c1,1%
Cc1ccccc1NC(=O)c1sc2nc3n(c(=O)c2c1C)CCC3,13%
Cc1cc(C)nc(Nc2ccc(N3CCCC3)cc2)n1,-19%
Cc1ccc(S(=O)(=O)NCC(=O)N(CC(=O)NCc2ccc(F)cc2)CC2CCCO2)cc1 (stereo not drawn),7%
Cc1cccc(OCCN2C(=O)C(=O)c3cc(C)ccc32)c1,71µM*

# Part of the list above in order of heavy-atom count, lowest first:
SMILES,VDR inhibitor
CCCCN(C(=O)c1ccc(C)cc1)c1c(N)n(CCC)c(=O)[nH]c1=O,-5%
CCn1c(SCC(=O)N2CCCc3ccccc32)nc2c1c(=O)n(C)c(=O)n2C,-9%
CCOC(=O)c1c(C)oc2nc(C)nc(NCC3CCN(Cc4ccccc4C)CC3)c12,27%

# (listing goes on)
SMILES,VDR inhibitor
COc1cccc(C2/C(=C(/O)c3ccc4c(c3)CC(C)O4)C(=O)C(=O)N2CCCn2ccnc2)c1 (stereo not drawn),8%
COc1ccc(CN(CC2CCCO2)C(=O)c2cc3sccc3n2C)c(OC)c1 (stereo not drawn),-1%
COc1ccc(Cn2ccn(Cc3cccc(C)c3)c(=O)c2=O)cc1,4%
COc1ccccc1CC(=O)Nc1ccon1,?
CC(C)CN(C(=O)c1ccc(=O)n(C)n1)c1nc2ccccc2s1,6%
COc1ccc([C@H]2C=C3CN(C(=O)OC(C)(C)C)S(=O)(=O)[C@H]3C[C@H]2OC(=O)c2cccs2)cc1,1%
CCCCn1c(=N)c(S(=O)(=O)c2ccc(Cl)cc2)cc2c(=O)n3cccc(C)c3nc21,-14%
COc1ccc(-c2cn(-c3ccc(C)cc3)c(=O)n2CC(=O)Nc2ccc(OC)c(OC)c2)cc1,2%
O=C(CNC(=O)c1ccco1)N=Nc1c(O)[nH]c2ccc(Br)cc12,-8%
O=C(Nc1scc(-c2ccccc2)c1C(=O)O)c1ccccc1F,-10%
O=C(O)c1cccc(CN2C(=O)CSC2=O)c1,5%
CCOC(=O)C1=NN(C(=O)Nc2cccc(C(F)(F)F)c2)C2C(=O)N(c3cccc(C(F)(F)F)c3)C(=O)C12 (stereo not drawn),-12%
Cc1cc(/C=N/n2cnnc2)c(C)n1-c1ccc2ncccc2c1,-11%
CCSc1nnc2n(-c3ccc(OC)cc3)c(=O)c3c4c(sc3n12)CCCC4,6%
O=C(/C=C/c1ccc(O)cc1)c1ccc(O)cc1O,79µM*!
Cc1ccc(N(CC(=O)NCc2ccccc2)C(=O)c2csnn2)cc1,-12%
O=C1/C(=C\Nc2ccc(OC(F)(F)F)cc2)CCN1c1ncccn1,3%
CCC1(C)Cc2c(sc(NC(=O)CCC(=O)O)c2C#N)CO1 (stereo not drawn),10%
COc1cc(C(=O)NCC(=O)N2CCN(S(=O)(=O)c3ccccc3)CC2)cc(OC)c1OC,5%
CCc1nn2c(=O)cc(COC(=O)c3ccccc3NC(=O)C3CCCCC3)nc2s1,8%
CCOc1ccc(C(C)=O)cc1CSc1nnc(-c2ccoc2C)n1N,-9%
COc1ccc(OCC(=O)OCC(=O)Nc2cc(S(=O)(=O)N3CCOCC3)ccc2Cl)cc1,-11%
CNC(=O)c1cc(C(=O)c2c(Cl)cccc2Cl)c[nH]1,8%
CN1CCN(C(=S)Nc2ccc(Oc3ccccc3)cc2)CC1,7%
CC(C)=CC(=O)N1CCCC(N2CCN(c3ccc(F)cc3)CC2)C1 (stereo not drawn),-7%
# Going on with the list:
SMILES,VDR inhibitor
Cc1ccc(Cn2c(C(C)Nc3nc(-c4ccc(C)cc4)cs3)nc3cc(Cl)c(Cl)cc32)cc1 (stereo not drawn),2%
CCOC(=O)c1ccc(NC(=O)CSc2nc3cccnc3n2C)cc1,-1%
N#C/C(=C\c1ccc(Cl)cc1)c1n[nH]c(Cn2cncn2)n1,2%
CC(OC(=O)C1CCN(c2ccc(C(F)(F)F)cn2)CC1)C(=O)c1ccccc1 (stereo not drawn),7%
Cc1cc(=O)[nH]c(SCC(=O)Nc2c(C)n(C)n(-c3ccccc3)c2=O)n1,-22%
CCCCCOC(=O)C1[C@H]2C(=O)N(CCCOC)C[C@]23C=C[C@H]1O3 (stereo partly drawn),-2%
CC(C)CC(=O)Nc1nnc(SCC(=O)Nc2ccc(F)cc2)s1,1%
CCOC(=O)N1CCc2c(sc3c2C(=O)NC(c2ccccc2)N3)C1 (stereo not drawn),-27%
NC1=NCC2c3ccccc3Cc3ccccc3N12 (stereo not drawn),9%&10%&2%
CCOC(=O)C1CCCN(c2c(NCCN(C)Cc3ccccc3)c(=O)c2=O)C1 (stereo not drawn),-2%
O=C1OC(=O)c2c(Br)c(Br)c(Br)c(Br)c21,-16%
CCOC(=O)c1cc(-c2csc(COc3ccc(Cl)cc3)n2)on1,-7%
CCCCCn1c(=O)c2ccccc2n2c(=S)[nH]nc12,?
c1csc(-c2nc3ccccc3s2)c1,-30%
COCCCNC(=O)c1cc2c(=O)n3cccc(C)c3nc2n(C(C)C)c1=N,-6%
O=C(CN1CCCC1)Nc1ccc(F)c(Cl)c1,14%
C=C1CCN(C(CC(C)C)C(=O)NCc2ccc(OC)cc2)S(=O)(=O)c2ccccc21 (stereo not drawn),0%
CCCCNC(=O)CCCn1c(=O)c2ccccc2n(CC(=O)Nc2ccccc2OCC)c1=O,7%
O=C(N1CCOCC1)N1CCN(S(=O)(=O)c2ccc(Cl)cc2)C1,14%
CCCCc1c(O)nc2n(c1=O)CCS2,20%
Cc1c(C(=O)NCC2CCCO2)sc2nc(-c3ccccc3)cn12 (stereo not drawn),-19%
COc1cc2c(c(O)c1OC)C(=O)C(OC)CCC2 (stereo not drawn),-4%
O=C(NC1CCCCCC1)C(=S)N1CCCC1,-7%
CCc1ccc(OC(C)C(=O)N2CCC(c3nc4ccccc4o3)CC2)cc1 (stereo not drawn),4%
O=c1c(/C=N/N2CCOCC2)c(C(F)(F)F)[nH]n1-c1ccccc1,-22%
COc1cc2oc3cc(C)oc(=O)c3c2cc1OC,-20%
O=C(NC1CCS(=O)(=O)C1)c1sc2ccccc2c1Cl (stereo not drawn),-12%

# Assay outcomes as filed in PubChem BioAssay.
